KCNQ2 pot = KCNQ2 (rat) channel potentiation. O88943. CHO-K1 KCNQ2, FluxOR thallium flux fluorescence; hits give high values. B-score at 10 µM. 310,000 compounds, 0.54% hits. AID 2239;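 active means fluorescence ratio B-score at least 3 SD of library B-scores, with initial fluorescence B-score within 3 SD, cut at about 5.3 in these data; same plate scores as AID 2156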;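 further: B-score of peak minus minimum over baseline fluorescence ratio after K+ and Tl+ stimulus; positive B-score means potentiation of KCNQ2 with more thallium influx and brighter signal; only the inactives scoring about 0 or higher are listed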
Target sequence (O88943 whole entry, looked up): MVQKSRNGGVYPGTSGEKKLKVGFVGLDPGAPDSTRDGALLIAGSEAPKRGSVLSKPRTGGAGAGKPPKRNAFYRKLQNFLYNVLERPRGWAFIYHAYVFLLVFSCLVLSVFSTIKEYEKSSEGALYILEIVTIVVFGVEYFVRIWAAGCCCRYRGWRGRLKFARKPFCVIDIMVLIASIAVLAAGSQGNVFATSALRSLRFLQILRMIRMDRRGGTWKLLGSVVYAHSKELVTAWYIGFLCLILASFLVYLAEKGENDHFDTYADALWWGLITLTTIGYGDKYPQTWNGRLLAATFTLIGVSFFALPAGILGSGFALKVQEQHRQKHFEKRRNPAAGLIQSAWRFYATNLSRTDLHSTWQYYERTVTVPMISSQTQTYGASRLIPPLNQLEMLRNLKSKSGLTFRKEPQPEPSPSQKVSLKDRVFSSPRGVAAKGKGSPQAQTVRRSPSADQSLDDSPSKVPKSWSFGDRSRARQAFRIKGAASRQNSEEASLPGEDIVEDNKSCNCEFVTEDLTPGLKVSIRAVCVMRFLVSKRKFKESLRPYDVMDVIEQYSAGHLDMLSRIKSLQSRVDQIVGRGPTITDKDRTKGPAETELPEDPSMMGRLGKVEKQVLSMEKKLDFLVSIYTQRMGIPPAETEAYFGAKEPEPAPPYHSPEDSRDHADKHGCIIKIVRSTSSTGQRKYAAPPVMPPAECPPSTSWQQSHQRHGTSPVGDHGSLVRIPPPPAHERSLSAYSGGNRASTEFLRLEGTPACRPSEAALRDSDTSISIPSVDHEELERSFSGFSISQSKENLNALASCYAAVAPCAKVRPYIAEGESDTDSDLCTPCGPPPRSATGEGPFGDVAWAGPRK
KCNQ2 pot baseline = also measured in KCNQ2 pot; calls as there; B-score; compound at 10 µM; measured here: initial fluorescence intensity artifact check;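 brightness before thallium and not channel activity; 0 = typical well and far values either way flag optical interference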
Active calls of the source: *. The list is partial; count on the stated rates, not on these rows.

SMILES	KCNQ2 pot	KCNQ2 pot baseline
COc1ccccc1C1Nc2ccccc2NC2=C1C(=O)CC(C)(C)C2 (configuration not stated)	1.4	-0.93
CC(C)NC(=O)CSc1nnc(-c2ccc(S(=O)(=O)N3CCCC3)cc2)n1CC1CCCO1 (configuration not stated)	1.1	-0.92
CCOc1ccc(CN(C)C(=O)Cc2c[nH]c3ccccc23)cc1	0.93	-0.1
Cc1nn(-c2ccccc2)c(N2CCCC2)c1/C=N/n1cnc2scc(-c3ccccc3)c2c1=O	0.81	0.53
CC(C)(C)c1ccc(C2=CSC3=NCCN23)cc1	0.71	-0.13
C/C(CCC1CC(C)OC1=O)=N/Nc1nc(-c2ccccc2)cs1 (configuration not stated)	2.4	-0.93
C(=N\N1CCOCC1)/c1nc(-c2ccccc2)n2ccccc12	0.58	1.6
CCCCSc1nc2sc3c(c2c(=O)[nH]1)CC(C)(CC)OC3 (configuration not stated)	0.05	0.24
CCOC(=O)c1c(C)nc(-c2ccccc2)nc1N	0.71	0.57
CCC(=O)c1cn(CC(=O)Nc2ccc(OC)cc2)c2ccccc12	0.48	0.29
CC1CCN(CCCNS(=O)(=O)c2ccc3c(c2)CCN3C(=O)C2CC2)CC1	1.5	-1
COC(=O)c1ccccc1NC(=S)NC(=O)c1ccc2ccccc2c1	0.01	0.99

Entries above that contain an aryl thioether with sulfur outside any ring:
SMILES	KCNQ2 pot	KCNQ2 pot baseline
CC(C)NC(=O)CSc1nnc(-c2ccc(S(=O)(=O)N3CCCC3)cc2)n1CC1CCCO1 (configuration not stated)	1.1	-0.92
CCCCSc1nc2sc3c(c2c(=O)[nH]1)CC(C)(CC)OC3 (configuration not stated)	0.05	0.24

(next part)
SMILES	KCNQ2 pot	KCNQ2 pot baseline
COc1cc(/C=C2\NC(=O)NC2=O)cc(Br)c1OC	0.08	-0.07
CCN(C(=O)COC(=O)c1cccs1)c1c(N)n(Cc2ccccc2)c(=O)[nH]c1=O	0.13	1.4
CCOC(=O)N1CCN(C(=O)c2ccc3c(c2)NC(=O)/C(=C\c2cccc(C)c2)S3)CC1	0.25	-0.4
CC(=O)OC(C(=O)NC1CCCCC1)c1ccc(Cl)cc1 (configuration not stated)	0.38	0.66
CNc1c(NS(=O)(=O)c2ccc(Cl)cc2)c(=O)oc2ccccc12	1.8	0.72
O=C(NNC(=O)c1ccc(O)c(Cl)c1)c1cccc(S(=O)(=O)N2CCOCC2)c1	0.92	0.77
Cc1ccc(C(=O)Oc2ccc(N3C(=O)CCC3=O)c(C)c2)cc1	0.02	0.55
Cc1sc(NC(=O)C2CC=CCC2C(=O)O)c(C(=O)OC(C)C)c1C (configuration not stated)	1.1	-1.1
CCN(CC)c1ccc(N2C(=NC(=O)C3CC3)SC3CS(=O)(=O)CC32)cc1 (configuration not stated)	0.41	-0.32
CN(Cc1ccccc1)C(=O)CCn1c(=O)oc2ccccc21	1	0.44
CSc1ccccc1C(=O)Nc1ccccc1C	0.13	0.83
CCN(CC(=O)Nc1c(F)cccc1F)C(=O)c1cccnc1SC	0.03	0.83
O=C(O)CCC(=O)Nc1ccc(Br)c(Cl)c1	0.84	1.4
Cc1cc(N2CCCC2=O)cc(C)c1S(N)(=O)=O	1.1	-1.3
CCC(C)NS(=O)(=O)c1ccc(NC(=O)C2CCN(C(=O)c3ccco3)CC2)cc1 (configuration not stated)	2.5	0.5
COc1ccc(C(=O)n2cnc(N)n2)cc1	0.4	-1.1
CCOC(=O)c1c(NC(=O)N/N=C/c2ccc(O)c(OC)c2)sc(C(C)=O)c1C	1.9	-0.25
C/C(=N\Nc1ccc(Cl)c(C(=O)O)c1)c1ccc(Br)s1	0.22	0.59
COCCN(C(=O)CSc1ncccn1)c1c(N)n(Cc2ccccc2)c(=O)[nH]c1=O	1.3	-0.02
C[C@@H](NC(=O)[C@@H]1Cc2ccccc2CN1C(=O)OC(C)(C)C)C(=O)NC1CCCCC1	0.66	-1.2
Cc1nc2ccccn2c1C(=O)CSc1ccc(Cl)cc1Cl	0.62	1.1
COc1cc(/C=N/NC(=O)c2cnccn2)ccc1O	0.01	1.5
CC(=O)N1N=C(c2ccccc2)OC1(C)CC(=O)Nc1ccccc1 (configuration not stated)	0.65	1.5
N#CC(C(=O)O)=C1CCCC1	2.8	-0.12
Cc1c(NC(=O)/C=C/c2cccs2)c(=O)n(-c2ccccc2)n1C	0.83	0.19
O=C(Cn1c(=O)oc2ccccc21)Nc1n[nH]c(=S)s1	1.9	-1.2
Brc1ccc2nc(CSc3ncn[nH]3)cn2c1	0.21	0.54
N=c1ncn(CC(O)CO)c2nc(N3CCOCC3)[nH]c12 (configuration not stated)	0.82	-0.88
O=C(c1n[nH]c(=O)c2ccccc12)N1CCN(c2ccc(F)cc2)CC1	0.68	-1.3
CCOC(=O)C1CCN(C(=O)COC(=O)CCOc2ccc(C)cc2)CC1	1.1	-0.32
CC(C)Cn1c(N)c(C(=O)COC(=O)CCNS(=O)(=O)c2ccccc2)c(=O)n(C)c1=O	0.81	-1.5
CC(NC(=O)c1ccccc1NS(=O)(=O)c1ccc(CCC(=O)O)cc1)c1ccccc1 (configuration not stated)	2.4	-1.1
Cc1c(NC(=O)/C(C#N)=C/c2ccc(-c3cccc(Cl)c3)o2)c(=O)n(-c2ccccc2)n1C	1.4	0.12
O=C(CSc1nnc(-c2ccccc2)n1-c1ccccc1)NCc1ccco1	0.32	-1.3
Nc1cc(C(=O)O)ccc1N1CCCCCC1	0.06	0.38
O=C(Nc1ccc(-c2csc(Nc3cccc(C(F)(F)F)c3)n2)cc1)c1ccccc1	0.99	-1.5
O=C(c1cccc(F)c1)N1CCN(Cc2ccc3c(c2)OCO3)CC1	0.02	-1.4
O=C(Cc1ccccc1F)Nc1ccccc1N1CCCC1	3.1	-2
Cc1cccc(C(=O)NCCC(=O)Nc2ccc(F)c([N+](=O)[O-])c2)c1	0.01	-0.48
CCOC(=O)C1=C(CN2CCN(C(=O)c3ccco3)CC2)NC(=O)NC1c1ccc(OC)cc1 (configuration not stated)	0.68	-0.43
COc1ccc(C(=O)NNC2=Nc3cccc4cccc2c34)cc1	0.63	-0.21
FC(F)(F)C(F)(F)C(F)(F)c1nnc2ccc(N3CCOCC3)nn12	1.9	-1.2
CC(Sc1nc2ccccc2c(=O)n1C)C(=O)NC1CCCCC1C (configuration not stated)	3	-0.25
CCn1cc(C(=O)NC2CCCCCC2)c(=O)c2ccc(C)nc21	0.08	-0.07
CCOc1ccccc1CNC(=O)Cn1nc(C)c2c(C)n(-c3ccc(C)cc3)nc2c1=O	0.47	-0.75
COc1cc(C)ccc1OCc1cc(C(=O)N(Cc2c(C)nn(C)c2C)C2CC2)no1	1.4	-0.31
COc1cccc(/C=N/NC(=O)c2cccc3ccccc23)c1	1.3	0.13
CCN(CC)S(=O)(=O)c1cccc2cccnc12	0.84	0.01

Filtered by structure: the entries above containing bromine
SMILES	KCNQ2 pot	KCNQ2 pot baseline
COc1cc(/C=C2\NC(=O)NC2=O)cc(Br)c1OC	0.08	-0.07
O=C(O)CCC(=O)Nc1ccc(Br)c(Cl)c1	0.84	1.4
C/C(=N\Nc1ccc(Cl)c(C(=O)O)c1)c1ccc(Br)s1	0.22	0.59
Brc1ccc2nc(CSc3ncn[nH]3)cn2c1	0.21	0.54

New compounds follow
SMILES	KCNQ2 pot	KCNQ2 pot baseline
Cc1nc(-c2ccc(NC(=O)C3CC3)cc2)cs1	0.84	0.65
Cc1ccc(C2=NOC(c3nnc(-c4ccccc4)o3)C2)cc1 (configuration not stated)	4.9	-0.31
CCC(C)Sc1nc2c(cnn2-c2ccc(C)c(C)c2)c(=O)[nH]1 (configuration not stated)	0.56	1.1
CC(=O)Nc1ccc(NC2(C)C(=O)c3ccccc3C2=O)cc1	0.55	-0.46
O=C(OCCN1CCOCC1)c1cccs1	0.13	-0.59
CCn1c(=NC(=O)CSC(C)=O)sc2cc(F)ccc21	1.5	1.2
COc1ccc(CCN(C)C2CCCN(S(=O)(=O)c3ccc(C)cc3)C2)cc1OC (configuration not stated)	0.31	0.25
O=C(NC1CCCCCC1)C(=S)N1CCOCC1	0.01	-2
CCOC(=O)N1CCC(NC(=O)CSCc2cnn(-c3ccccc3)c2-n2cccc2)CC1	0.04	1.6
Cc1cc(C)nc(Nc2n[nH]c(-c3ccccc3Br)n2)n1	0.91	0
CCOc1ccccc1C(=O)Nc1ccc(NC(=O)c2ccccc2)cc1	0.17	0.05
COc1cccc2[nH]c3c(=O)n(CCN(C)C)cnc3c12	0.33	-0.24
O=C(COC(=O)COc1ccc2ccccc2c1)Nc1cc(C(F)(F)F)ccc1N1CCOCC1	0.02	-0.75
CCCN(CC(=O)Nc1ccc(F)c(F)c1F)C(=O)Cn1c(=O)cnc2ccccc21	1.8	-0.53
COc1ccc(C)c2sc(NC(=O)c3cccc(N4C(=O)CCC4=O)c3)nc12	0.83	-0.03
COCCCNC(=O)c1ccc(NC(C)=O)cc1	0.46	0.63
CCOCCCNC(=O)c1ccc2c(=O)n(CCCOCC)c(=S)[nH]c2c1	0.28	1.2
CCOc1ccc(N2CC(C(=O)Nc3ccc(S(=O)(=O)NCC4CCCO4)cc3)CC2=O)cc1 (configuration not stated)	1.2	0.51
CCC1(CC)Cc2ccccc2C(=O)N1	1.2	-1.2
COc1ccc(NC(=O)N2C3CCCC2CC(NC(=O)C2CC2)C3)cc1 (configuration not stated)	0.01	3
CCc1nnc(NC(=O)C(=O)NCCOC(=O)c2ccccc2)s1	0.52	1.9
COc1ccc(C)cc1NC(=O)C(OC(=O)CNC(=O)c1cccc(F)c1)c1ccccc1 (configuration not stated)	0.85	-0.38
CSc1ncccc1C(=O)OCc1ccc(Br)cc1	0.63	0.02
NC1=NC[C@H](Cc2ccc(O)cc2)N1CCc1cccc2ccccc12	0.67	1.6
COC(=O)c1ccccc1NC(=O)CNCCc1ccc(OC)c(OC)c1	2.1	0
Cc1cccc(C(=O)NC(=S)Nc2ccc(N3CCOCC3)cc2)c1	0.35	-2
COc1ccc(NC(=O)c2cnc3sccn3c2=O)cc1	0.63	-0.09
CCC(=O)Nc1cccc(NC(=S)NC(=O)c2ccc(Cl)cc2)c1	0.31	0.46
COCCOC(=O)c1c(NC(=O)CNc2ccc(C)c(F)c2)sc(C(N)=O)c1C	2	-2.6
Cc1cc(C(=O)NN)c2cc(Br)ccc2n1	1.1	-0.5
CC(C)[C@H](NC(=O)[C@@H]1Cc2ccccc2CN1C(=O)OC(C)(C)C)C(=O)NC1CCCC1	0.5	-0.21
COc1ccc(/C(C)=N/OCC(=O)N=Nc2c(O)[nH]c3ccccc23)cc1	0.41	-0.4
CCOc1ccc2[nH]c(=S)[nH]c2c1	0.77	0.43
CN(C)S(=O)(=O)c1ccc(/C(O)=C2/C(=O)C(=O)N(Cc3cccnc3)C2c2cccs2)cc1 (configuration not stated)	0.59	-1.6
COCCOC(=O)C1=C(C)NC(=O)NC1/C=C/c1ccccc1 (configuration not stated)	1.2	-0.8
CC(CNC(=O)C(C)C)NC(=O)C(C)C (configuration not stated)	0.22	1.3
O=C(O)c1n[nH]c2c1CCCC2	0.56	0
COc1cc(/C=C/C(=O)N2CCN(C(=O)/C=C/c3cc(OC)c(OC)c(OC)c3)CC2)cc(OC)c1OC	1.8	0
CCCC(=O)NNC(=O)CC(=O)Nc1ccccc1C(=O)O	0.61	0.52
CCCc1ccc2oc(C(=O)N3CCN(C4CCS(=O)(=O)C4)CC3)c(C)c2c1 (configuration not stated)	1.3	-0.01
COc1ccccc1CNC(=O)Cn1cnnn1	0.49	-0.9
CN(C)C(/C=C/Nc1ccc(C#N)cc1)=C(C#N)C#N	0.05	0.91
Cn1cc(C(=O)N2CCc3ccccc32)cn1	1.4	-0.15
O=C(OCC(=O)N1CCCC1)c1cc(F)c(F)cc1Cl	1.7	-0.16
CN(C)S(=O)(=O)c1ccc(-c2csc(N/N=C/c3ccc(O)cc3)n2)cc1	1.4	1
N#Cc1ccc(C(=O)Nc2cccc3cccnc23)c(F)c1	0.43	-0.06
O=C(C1CCN(S(=O)(=O)c2cccc3cccnc23)CC1)N1CCCCC1	0.19	3.4
S=C(Nc1ccc(Nc2ccccc2)cc1)Nc1ccccn1	0.09	-0.01

Shown bar-delimited: part of the list above.
Structure | KCNQ2 pot | KCNQ2 pot baseline
COc1ccccc1CNC(=O)Cn1cnnn1 | 0.49 | -0.9
COc1cc(/C=C/C(=O)N2CCN(C(=O)/C=C/c3cc(OC)c(OC)c(OC)c3)CC2)cc(OC)c1OC | 1.8 | 0

The list goes on.
SMILES	KCNQ2 pot	KCNQ2 pot baseline
CCCCNC(=S)NNC(=O)c1csc(C)c1CC	0.01	0.63
CN(C)c1ccc(C(O)Cc2nc3ccccc3n2C)cc1 (configuration not stated)	0.03	-1.3
COc1ccc(NC(=O)CC2COc3ccccc3O2)c(OC)c1 (configuration not stated)	4.1	0.32
Cc1csc(NC(=O)CSc2nnc(NC(=O)COc3ccc(Cl)cc3)s2)n1	0.27	0.07
COc1ccc2[nH]c(=O)c(C(c3nnnn3C(C)(C)C)N(Cc3ccco3)CC3CCCO3)cc2c1 (configuration not stated)	0.59	-0.24
O=C(CCCOc1ccccc1)Nc1ccccc1C(F)(F)F	0.19	-1.3
CC(=O)Nc1ccc(SCC(=O)c2cc(C)n(Cc3cccs3)c2C)cc1	0.38	0.22
O=C(NCCCN=C1NS(=O)(=O)c2ccccc21)c1ccccc1Cl	1.7	0
CC(=O)Nc1ccc(N2C(=O)C3C4C=CC(CC4)C3C2=O)cc1 (configuration not stated)	0.07	-0.09

Single entries from above:
KCNQ2 pot baseline result of Cc1csc(NC(=O)CSc2nnc(NC(=O)COc3ccc(Cl)cc3)s2)n1 reads 0.07
KCNQ2 pot result of O=C(CCCOc1ccccc1)Nc1ccccc1C(F)(F)F reads 0.19
